# From PubChem
# TRPML1 blocker: qHTS for Inhibitors of the Human Mucolipin Transient Receptor Potential 1 (TRPML1); Mucolipin-1 (Homo sapiens), Q9GZU1; TRPML1-inducible cells, Ca2+ dye fluorescence, FDSS; active compounds read low; inhibition of EC80 agonist-evoked calcium signal; activity change, negative = inhibition, % (no concentration beside the values); 0.02% of 390,000 active; AID 624415, 2012; in the data active means activity change below about -50%; inconclusive means about -30% to -50%; inactive means above about -30%;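 note: stimulus is agonist 54-4 at its EC80 concentration; % is set by controls: 0 for no effect and ±100 for the full control effect; compound concentration not given in the record; the text of the record puts the active cut at -80%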
# Target sequence (Q9GZU1 whole entry, looked up): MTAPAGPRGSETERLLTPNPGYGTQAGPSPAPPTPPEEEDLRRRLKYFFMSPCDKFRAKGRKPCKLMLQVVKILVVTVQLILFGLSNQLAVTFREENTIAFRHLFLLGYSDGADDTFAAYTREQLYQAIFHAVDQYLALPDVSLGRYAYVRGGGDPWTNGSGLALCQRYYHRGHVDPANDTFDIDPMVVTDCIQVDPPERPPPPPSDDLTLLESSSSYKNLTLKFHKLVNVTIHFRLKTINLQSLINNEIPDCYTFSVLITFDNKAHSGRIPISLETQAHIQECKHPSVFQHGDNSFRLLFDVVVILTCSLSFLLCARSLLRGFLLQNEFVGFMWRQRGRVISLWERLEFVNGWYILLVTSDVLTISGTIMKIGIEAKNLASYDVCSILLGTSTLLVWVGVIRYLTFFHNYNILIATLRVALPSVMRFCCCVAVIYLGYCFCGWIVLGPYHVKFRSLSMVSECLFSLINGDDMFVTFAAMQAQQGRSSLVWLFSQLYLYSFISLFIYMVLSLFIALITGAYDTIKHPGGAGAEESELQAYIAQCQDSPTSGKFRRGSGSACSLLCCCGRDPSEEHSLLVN
#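 TRPML1-DL cells, Tet-induced overnight (~16 h, 37 °C) at 1,500 cells/well, were loaded with Ca8 no-wash dye plus quencher for 45-90 min at room temperature. Compounds were pinned during FDSS kinetic reading; agonist 54-4 at EC80 (4 uM final) then added.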
# ClpP mod: qHTS Assay for Activators of ClpP; ATP-dependent Clp protease proteolytic subunit (Bacillus subtilis (strain 168)), P80244; purified B. subtilis ClpP, FRET peptide cleavage, 20 min; Potency, µM (doses to about 57.5 µM), for inactives: top-dose activity change, negative = active; 1.9% of 340,000 active; AID 651965, 2013; active = well fitted falling curve with a large enough effect; inconclusive = small, poorly fitted or top-dose-only effect; inactive = no such curve, though single readings can be large or run the other way; note: potency is the fitted concentration of half-maximal effect; the source files actives as falling curves though it sought activators and does not explain the sign; nearly all actives have a fitted effect of over 65% in size; many hits overshoot -100%
# Target sequence (P80244 whole entry, looked up): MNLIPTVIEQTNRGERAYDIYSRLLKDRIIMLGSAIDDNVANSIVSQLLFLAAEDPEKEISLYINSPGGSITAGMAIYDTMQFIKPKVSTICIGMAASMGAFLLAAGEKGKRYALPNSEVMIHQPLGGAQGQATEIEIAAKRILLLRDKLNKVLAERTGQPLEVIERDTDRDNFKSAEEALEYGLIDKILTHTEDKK
#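 FRET quenching reversal measured ClpP activation: 10 microg/mL B. subtilis ClpP at pH 8 with the FRET-FV decapeptide, read at 430 nm after 320 nm excitation. The 20-min minus 0-min signal was scaled between DMSO/no-enzyme wells and ADEP (5.8 microM final).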
# TRPV1 potentiator: HTS Assay for Compounds that Act as Potentiators of the Vanilloid Receptor 1; TRPV1-expressing cells, Fluo-8 calcium influx, capsaicin EC20 potentiation; host cell line not named in the record; control for the full effect not named in the record; potentiation, % at 8.33 µM; 0.02% of 320,000 active; AID 540277, 2011; active means potentiation above 80%; inconclusive means 30% to 80%; inactive means below 30%; note: 0% is about no effect
#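 Fluo-8 calcium influx in TRPV1-expressing cells, kinetic read (ex 480/em 520 nm). Compound added and read 3 min for agonist activity, followed by capsaicin at EC20 final and 2 min further read for enhancement.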
# PINK1 modulator: A Quantitative High throughput Screen to Identify Chemical Modulators of PINK1 Expression; Potency, µM (titrated, usually from 76.6 µM), inactives show at the highest dose activation (PINK1 increase), actives largely listed as activators; 0.2% of 410,000 active; AID 624263, 2012; PINK1 immunofluorescence, high-content cytometry, 24 h; active = well fitted activation curve with a large enough effect; inconclusive = small, poorly fitted or top-dose-only effect; inactive = flat fitted curve, though single readings scatter; cell line not stated here;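 note: potency is the fitted concentration of half-maximal effect; % of control where 0% means no effect; nearly all actives have a fitted effect of over 65% in size; a mitochondrial uncoupler was the plate control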
#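 Stable cell line treated 24 h with compounds at 5 concentrations (CCCP controls), then fixed and immunostained for PINK1 plus nuclear and cell stains; PINK1 immunofluorescence quantified by laser-scanning microplate cytometry.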
# Menin-MLL FL inh: qHTS Assay for Inhibitors Targeting the Menin-MLL Interaction in MLL Related Leukemias: Competition With Fluorescein Labeled MLL-derived Peptide. Fluorescence polarization, fluorescein-MLL peptide displacement from menin. FP activity change, % at 61.4 µM. 290,000 tested, under 10 active. AID 1766, 2009; inconclusive = falling polarisation curve, or a change in total fluorescence; inactive = total fluorescence flat and polarisation flat or rising; no compound was filed as active; the % refers to the polarisation; negative = inhibition;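 note: % of control where 0% means no effect; inhibitors lower the polarisation; unlabelled MLL peptide was the positive control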
# TRPML1 agonist: qHTS for Agonists of the Human Mucolipin Transient Receptor Potential 1 (TRPML1). AID 624414, 2012. TRPML1-expressing cells, Ca2+ dye fluorescence, FDSS; host cell line not named in the record; reference of the full effect not given here. 0.12% of 410,000 active. Mucolipin-1 (Homo sapiens), Q9GZU1. activation, % (concentration not given with the values); in the data active = activation above about 50%; inconclusive = about 30% to 50%; inactive = below about 30%; note: 0% is about no effect; the text of the record puts the active cut at 80%
#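 Kinetic FDSS Ca2+ read in Tet-induced TRPML1-DL cells (ABD Ca8 dye plus quencher, 45-90 min RT loading): baseline, then compound, then 110 s agonist window; EC80 agonist 54-4 at 4uM final added afterwards for a 110 s antagonist window.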
# Sfp PPTase inh: qHTS Assay for Inhibitors of Bacillus subtilis Sfp phosphopantetheinyl transferase (PPTase) | Biochemical Sfp PPTase activity, qHTS | Potency, µM, for inactives: max response, negative = inhibition, actives largely listed as inhibitors | 3.5% of 310,000 active; active = well fitted inhibition curve with a large enough effect; inconclusive = small, poorly fitted or top-dose-only effect, or another doubt; inactive = no such curve, though single readings can be large or run the other way;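 note: the enzyme is Sfp with the accession as filed and its product quenches rhodamine fluorescence; potency is the fitted concentration of half-maximal effect; 0% = enzyme reaction without inhibitor and -100% = no enzyme wells; top concentration of the series not given in the record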
#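 Step 1, compound plus 15 nM Sfp-PPTase, 15 min, room temperature. Step 2, add rhodamine-CoA (5 uM) and BHQ-2-YbbR (12.5 uM). Step 3, read 525/598 nm fluorescence at 0 and 30 min.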
# Starred values were filed as active, the others as inactive; ? = inconclusive; . = not tested or not shown; & = joins results of further samples; [ ] = another dose, or the depositor's remark.
SMILES,TRPML1 blocker,ClpP mod,TRPV1 potentiator,PINK1 modulator,Menin-MLL FL inh,TRPML1 agonist,Sfp PPTase inh
CC(c1n[nH]c(=S)n1Cc1ccccc1)N(C)C (configuration not stated),12.4,-0.2%,1.8,-0.2%,-1.2,-1.3,89.1µM*
CCC(Sc1n[nH]c(=O)[nH]c1=O)C(=O)OCc1ccccc1 (configuration not stated),-15.2,0.4%,1.6,1.1%,3.4,-0.2,?
CCc1nnc(NS(=O)(=O)c2ccc(NC(=S)NC(=O)/C=C/c3ccc(OC)cc3)cc2)s1,33.1,?,8.5,3.2%,7.4,0.2,79.4µM*
O=C(CCc1nnc(C2CCCCC2)o1)N1CCCCC1CCn1cccn1 (configuration not stated),-3.5,.,13.2,-1.4%,2.5,0.3,15.5%
COc1cc(-c2cc(C(=O)N3CCN(c4ccccn4)CC3)c3ccccc3n2)cc(OC)c1OC,17.5,-14.0%,-2.8,8.2%[38.3 µM],1.2,1.5,-13.4%
CCOC(=O)N1CCN(c2ccccc2OC)CC1,6.1,0.3%,6.5,0.5%,-0.9,-0.8,8.5%
COc1cc(S(=O)(=O)NCCCn2ccnc2)ccc1Cl,-7.3,-0.1%,-1.4,0.0%,-0.3,0.2,10.7%
CCc1ccc(NC(=O)C2=CC(c3cccs3)=NS(=O)(=O)N2C)cc1,10.3&-2.3,-0.5%&-0.8%,?,?,-9.9,-0.3&1.4,16.8%
O=C(c1c(O)c2ccccc2oc1=O)C1CCCCC1,-6.7,0.3%,11.0,3.6%[38.3 µM],-1.2,0.1,6.4%
O=C1c2ccccc2C(c2nnnn2Cc2ccccc2)N1Cc1cccnc1 (configuration not stated),.,-1.9%,.,0.4%,.,-1.0,.
Cc1ccc(O)c(C2=Nc3ccccc3N=C(c3cccs3)C2)c1,21.4,-2.3%,-3.1,0.4%,6.1,-0.2,?
CCOC(=O)Cc1nn(CCc2ccccn2)c(=O)c2ccccc12,-22.0,-1.5%,-7.5,-1.2%,-1.3,1.2,-2.3%
O=C(NC1CCCc2ccccc21)c1cccc(S(=O)(=O)N2CCOCC2)c1 (configuration not stated),-0.2,1.5%,29.0,-1.7%,0.3,1.7,15.8%
Cc1ccc(NC(=O)[C@H](NC(=O)[C@@H]2Cc3ccccc3CN2)c2ccccc2)cc1C,38.5,-2.2%,3.3,?,.,0.4,-5.2%
O=C(Nc1ccc(F)cc1F)Nc1ccccc1C(=O)NCCN1CCNC1=O,12.8,-19.0%,.,-0.6%,3.0,0.6,-9.6%
COc1ccccc1C(=O)NCC(=O)NNc1ncnc(N)c1[N+](=O)[O-],.,.,-8.7,.,-1.1,.,7.08µM*
COc1ccc(NC(=O)c2nc[nH]c2C(=O)N[C@@H](CC(C)C)C(=O)OC(C)(C)C)cc1,29.6,-4.0%,-9.3,0.1%,1.0,0.0,16.4%
CCC(CC)CN1CCC(CN2CCNC(=O)C2=O)CC1,9.7,-7.5%,.,-0.2%,.,-0.4,.
COc1ccc(/C=N/NC(=O)c2c(-c3ccccc3)noc2C)cc1,-3.4,-3.4%,-8.3,2.5%,-1.3,0.6,-8.2%
CCN(CC)C(=O)Cn1cc(C(=O)C(=O)N2CCN(Cc3ccccc3)CC2)c2ccccc21,27.1,-2.7%,-17.2,0.7%,-7.5,0.1,8.3%
COC(=O)c1cc(CNC(=O)c2ccccc2OCc2c(C)noc2C)ccc1OC,-7.0,-9.6%,9.6,0.3%,.,1.4,20.5%
CCOC(=O)N1CCN(C(=O)c2ccc(CS(=O)Cc3ccc(C)cc3)o2)CC1 (configuration not stated),9.0,-1.4%,19.9,-1.9%,.,0.5,10.0%
CCOc1ncccc1C(=O)OCC(=O)NCc1ccc(C(=O)OC)cc1,-17.5,-2.5%,.,-0.5%,.,1.1,.
Cc1ccc2c(c1)N(C(=O)CCC(=O)O)CCO2,-8.9,-7.6%,-8.0,0.9%,2.9,-0.1,10.4%
CCCn1c(NCc2ccccn2)nc2ccccc21,-13.4,-0.9%,-3.3,-3.8%,-6.5,-0.9,?
Clc1ccc(-c2csc(NNC3=NCCCCC3)n2)cc1,-6.3,-2.8%,-0.8,17.1%,1.9,1.0,56.2µM*
CC(=O)c1c(C)[nH]c(C(=O)OCC(=O)Nc2ccc3[nH]c(=O)[nH]c3c2)c1C,29.3,.,11.0,1.9%,.,-0.4,.
O=C(Nc1ccc(Cl)c(Cl)c1)Nc1nnc(CSc2ccccc2)s1,-10.1,-2.2%,10.8,10µM*,3.1,0.8,6.6%
COc1cccc(CN(CC(=O)NCC2CCCO2)C(=O)CNS(=O)(=O)c2ccccc2)c1 (configuration not stated),14.1,-3.0%,.,-2.4%[38.3 µM],.,-0.3,.
Cc1cc(C)n2nc(C(=O)OCC(=O)NC3CCCCC3)nc2n1,-4.5,-1.5%,-0.9,0.1%,.,0.9,.
CCCCN1C(=O)C(=O)N(CC(=O)Nc2ccccc2C(C)=O)C1=O,10.3,-1.9%,.,0.6%,.,0.1,.
CN(C)S(=O)(=O)n1cc(/C=C(\NC(=O)c2ccccc2F)C(=O)N2CCCCC2)c2ccccc21,42.4,14.3%,.,7.6%,.,-1.0,.
COc1cc(NC(=O)c2ccc(S(=O)(=O)N(C)c3ccccc3OC)cc2)cc(OC)c1,12.6,.,.,0.7%,.,0.4,.
Cc1c(C(=O)N(Cc2ccc(N(C)C)cc2)CC2CCCO2)oc2ccc(Br)cc12 (configuration not stated),6.1,-2.2%,.,0.5%,.,-0.1,.
COc1ccc(CC(=O)Nc2c(C(N)=O)oc3ccccc23)cc1OC,-7.9,-1.3%,-15.1,0.4%,0.1,-0.5,-2.0%
NC(=O)NCC12CC3CC(CC(C3)C1)C2,6.0,-0.9%,.,2.9%,-0.7,0.3,3.9%
CC(=O)Nc1ccc(NC(=O)CSc2nc3ccccc3nc2N2CCCCC2)cc1,-22.2&21.3,-0.9%,29.8,11.2%&13.4%,1.8,-0.6&-0.2,0.3%
CCCS(=O)(=O)c1nc(S(=O)(=O)c2ccc(C)cc2)c(NC)s1,0.3,-1.0%,.,-1.8%,.,0.1,.
COC(=O)c1c(-c2cccs2)csc1NC(=O)COc1c(C)ccc(C)c1C,-11.6,?,.,0.2%,.,-0.4,.
CC(=O)Nc1ccc(S(=O)(=O)N2CCN(c3nc(NC4CCCC4)c4ccccc4n3)CC2)cc1,-9.6,28.2µM*,-2.5,-2.0%,3.8,0.1,-5.6%
Cc1ccc(-n2c(SCC(=O)N/N=C/c3ccc(C)s3)nnc2-c2ccccc2)cc1,4.7,2.4%,-7.3,0.5%,7.9,2.6,-20.9%
Cc1ccc(NC2=NCC(=O)N2Cc2ccc3c(c2)OCO3)cc1,-0.3,-21.4%,-3.3,0.8%,17.7,-0.1,14.7%
COc1ccccc1Nc1nc2nonc2nc1N1CCC(C)CC1,20.6,1.9%,-9.1,7.5%,7.3,8.4,4.3%
CC(C)N(CCCNC(=O)Cn1ncc2c([nH]c3ccccc32)c1=O)Cc1ccccc1,19.5&13.4,?,6.0,-0.7%&2.3%,0.1,1.5&4.1,16.1%
COc1ccccc1NS(=O)(=O)c1cc(NC(=O)CC(C)(C)C)ccc1N1CCOCC1,39.8,.,-4.1,-0.4%,-1.6,1.5,9.6%
Cc1ccc(C(=O)Nc2nc(-c3ccccn3)cs2)o1,-15.7,1.3%,.,1.2%,2.3,-0.6,-7.9%
Oc1c(Cl)cc(Cl)cc1Sc1cc(Cl)cc(Cl)c1O,.,.,1.7,.,-1.5&3.8&0.5,.,7.7%&-11.3%&-1.0%
COc1ccc(C2=NN(C(=O)c3cccs3)C(c3ccc(OC)cc3)C2)cc1 (configuration not stated),5.4,?,15.0,1.2%,-2.5,0.5,?
CC12CN3CC(C)(CN(C1)C3c1ccc([N+](=O)[O-])o1)C2=O (configuration not stated),-6.5,-0.2%,7.1,-0.5%,0.7,4.4,-12.0%
CC1CCN(CC2CCN(C(=O)NCc3ccccc3)CC2)CC1,22.2,-1.8%,.,-0.9%,.,0.9,.
CCn1c(SCC(=O)Nc2nc3ccc(OC)cc3s2)nnc1-c1ccoc1C,27.0,-1.7%,6.5,-0.9%,3.5,4.3,-8.9%
O=C(NCCCN1CCOCC1)c1ccc(CS(=O)(=O)c2ccc(Br)cc2)o1,-16.1,-5.2%,-4.9,0.1%,-5.0,-0.1,15.0%
CCOc1ccc(CCNC(=O)c2ccc3nc(N4CCOCC4)sc3c2)cc1OCC,0.0,.,5.2,1.9%,4.0,1.1,7.3%

# In the list so far, these contain an aryl thioether with sulfur outside any ring:
SMILES,TRPML1 blocker,ClpP mod,TRPV1 potentiator,PINK1 modulator,Menin-MLL FL inh,TRPML1 agonist,Sfp PPTase inh
CCC(Sc1n[nH]c(=O)[nH]c1=O)C(=O)OCc1ccccc1 (configuration not stated),-15.2,0.4%,1.6,1.1%,3.4,-0.2,?
O=C(Nc1ccc(Cl)c(Cl)c1)Nc1nnc(CSc2ccccc2)s1,-10.1,-2.2%,10.8,10µM*,3.1,0.8,6.6%
CC(=O)Nc1ccc(NC(=O)CSc2nc3ccccc3nc2N2CCCCC2)cc1,-22.2&21.3,-0.9%,29.8,11.2%&13.4%,1.8,-0.6&-0.2,0.3%
Cc1ccc(-n2c(SCC(=O)N/N=C/c3ccc(C)s3)nnc2-c2ccccc2)cc1,4.7,2.4%,-7.3,0.5%,7.9,2.6,-20.9%
Oc1c(Cl)cc(Cl)cc1Sc1cc(Cl)cc(Cl)c1O,.,.,1.7,.,-1.5&3.8&0.5,.,7.7%&-11.3%&-1.0%
CCn1c(SCC(=O)Nc2nc3ccc(OC)cc3s2)nnc1-c1ccoc1C,27.0,-1.7%,6.5,-0.9%,3.5,4.3,-8.9%
